High-throughput results (PubChem BioAssay)
Polio RdRp inh: poliovirus RdRp elongation inhibitors, primary screen, biochemical, fluorescence polarization, total intensity; poliovirus polymerase elongation; active compounds read low; % elongation, % (compound at 16.7 µg/mL); 150,000 compounds, 0.66% hits; Genome polyprotein (Poliovirus type 1 (strain Mahoney)), P03300; in the data active = % elongation below about 90%; also: some results filed as inactive read as strong as hits
Target sequence (P03300 1749-2209 limits assumed): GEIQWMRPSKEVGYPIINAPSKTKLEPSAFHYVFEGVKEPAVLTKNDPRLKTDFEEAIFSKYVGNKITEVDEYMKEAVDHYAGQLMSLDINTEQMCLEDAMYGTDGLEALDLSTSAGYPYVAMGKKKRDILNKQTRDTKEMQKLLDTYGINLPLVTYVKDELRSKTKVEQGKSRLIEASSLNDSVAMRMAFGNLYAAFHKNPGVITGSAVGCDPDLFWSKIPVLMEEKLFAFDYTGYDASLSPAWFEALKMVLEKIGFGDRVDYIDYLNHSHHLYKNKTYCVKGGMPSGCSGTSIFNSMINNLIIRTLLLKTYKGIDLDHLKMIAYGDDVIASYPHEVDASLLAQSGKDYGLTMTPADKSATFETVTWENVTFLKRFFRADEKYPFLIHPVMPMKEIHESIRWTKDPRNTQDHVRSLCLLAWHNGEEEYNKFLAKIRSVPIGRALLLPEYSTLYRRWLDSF
Polio RdRp inh intensity: also measured in Polio RdRp inh; calls as there; % elongation; measured here: total intensity read-out; formula for this scale not given here;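 total fluorescence in place of polarization; lower means less elongation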
* hit, by the source's call. This is a subset (hit frequency here may not be typical).

Start of the listing, in advance:
1: COc1ccc(Cl)cc1NC(=O)CCCn1c(C)c2cnn(-c3ccccc3)c(=O)c2c1C
2: Cc1ccc(-n2ncc3c(NCCc4ccccc4)ncnc32)cc1Cl
3: COc1ccc(Cl)cc1Nc1ncnc2c1c(-c1ccccc1)cn2-c1ccccc1
4: Cc1ccccc1OC(=O)c1nc(SCc2ccccc2F)ncc1Cl

assay / entry	1	2	3	4
Polio RdRp inh	102	104	108	100
Polio RdRp inh intensity	108	103	98	95

Results (from the top)
1: COc1ccc(Cl)cc1NC(=O)CCCn1c(C)c2cnn(-c3ccccc3)c(=O)c2c1C
2: Cc1ccc(-n2ncc3c(NCCc4ccccc4)ncnc32)cc1Cl
3: COc1ccc(Cl)cc1Nc1ncnc2c1c(-c1ccccc1)cn2-c1ccccc1
4: Cc1ccccc1OC(=O)c1nc(SCc2ccccc2F)ncc1Cl
5: COc1ccc(CCNC(=O)CCCn2c(=O)c3ccccc3n(Cc3ccccc3)c2=O)cc1OC
6: CCCn1c2ccccc2c2cnn(CC(=O)NCCc3ccccc3)c(=O)c21
7: COc1ccc(-c2[nH]c(-c3cccc(OC)c3)nc2SCC(=O)Nc2ccc3c(c2)OCO3)cc1
8: COc1ccc(C(C)C)cc1S(=O)(=O)NCCc1c(C)[nH]c2c(Cl)cccc12

assay / entry	1	2	3	4	5	6	7	8
Polio RdRp inh	102	104	108	100	104	104	116	106
Polio RdRp inh intensity	108	103	98	95	103	95	116	107

9: O=C1Nc2ccccc2C1Cc1ccc(Br)cc1 (stereo not given)
10: CC(=O)Nc1ccc(NCc2nnc3n2CCCCC3)cc1
11: COc1ccc(/C=C(/C#N)c2nc(-c3ccc(-c4ccccc4)cc3)cs2)cc1
12: Cc1cccn2c(=O)c3cc(C(=O)NC(C)c4ccccc4)c(=N)n(CCOCCO)c3nc12 (stereo not given)
13: COc1ccccc1OCCSc1nc2ccccc2n1CC(=O)N1CCOCC1
14: CCc1ccc(CNC(=O)CN2C(=O)CSc3c2c(C)nn3-c2ccccc2)cc1
15: CCOC(=O)c1ccc(NC(=O)C(CC)Sc2nncn3c2cc2oc(C)cc23)cc1 (stereo not given)
16: COc1cccc(CNCCSc2nnnn2C)c1OCc1ccc(Cl)cc1

assay / entry	9	10	11	12	13	14	15	16
Polio RdRp inh	98	106	105	111	105	107	114	101
Polio RdRp inh intensity	106	112	107	110	101	100	116	104

17: CCOc1ccccc1CNC(=O)CCn1c(=O)c2cccn2c2ccc(F)cc21
18: COc1cccc(CNC(=O)c2cc3c(-c4ccccc4F)nn(C)c3s2)c1
19: Cc1ccc(C)c(N2CCN(CCCNC(=O)c3ccc4nc(N5CCC(C)CC5)sc4c3)CC2)c1
20: COc1ccc(N2CC(C(=O)Nc3ccccc3-c3nc(-c4ccc(C)cc4)no3)CC2=O)cc1 (stereo not given)
21: O=C(NCCc1ccccc1)c1ccc(CS(=O)(=O)c2ccc(Cl)cc2)o1
22: COC(=O)c1ccc(NC(=O)Cn2nc(C(=O)Nc3ccc(C)cc3)ccc2=O)cc1
23: Cc1cccc(NC(=O)Cn2nc3c4ccccc4n(Cc4ccccc4)cc-3c2=O)c1
24: CCC(C)NC(=O)CCCN1C(=O)CCn2nc(-c3cccn3C)cc21 (stereo not given)

assay / entry	17	18	19	20	21	22	23	24
Polio RdRp inh	109	103	108	105	109	101	110	110
Polio RdRp inh intensity	109	105	111	109	108	100	115	112

25: CCN(CC)C(=O)c1sc2c(c1C)c(=O)n(-c1ccc(C)c(C)c1)c(=O)n2CC(=O)Nc1ccc(F)cc1
26: COc1ccc(NC(=O)c2ccco2)cc1NC(=O)c1c(OC)cccc1OC
27: Cc1ccc(-c2c(CN3CCN(c4cccc(C)c4)C(C)C3)csc2C)cc1 (stereo not given)
28: O=C(Nc1ccccc1)c1cn(-c2ccccc2)nc1-c1ccccc1
29: CC1=C(c2ccc(C)c(C)c2)S(=O)(=O)N=C1N1CCC(C(=O)NCCc2ccco2)CC1
30: CCOC(=O)c1cnc2cc(F)c(F)cc2c1Nc1ccccc1O
31: CCOC(=O)c1nc(Nc2ccc(C(=O)OCC(C)C)cc2)c2ccccc2n1
32: CCOc1ccccc1NC(=O)Cn1c(=O)n(CCC(C)C)c(=O)c2cccnc21

assay / entry	25	26	27	28	29	30	31	32
Polio RdRp inh	102	104	98	110	107	102	103	100
Polio RdRp inh intensity	105	104	97	108	113	94	107	104

33: CCCCn1cc(S(=O)(=O)c2ccc(OC)cc2)c(=O)c2cc(CC)ccc21
34: Cc1c2cnn(-c3ccccc3)c(=O)c2c(C)n1CC(=O)NCCc1ccc(Cl)cc1
35: CCOc1ccc(NC(=O)NCCn2nnc3cc(S(=O)(=O)N(C)C)ccc32)cc1
36: COc1ccc(Cn2c(CCC(=O)NCc3cccc(Cl)c3)nc3cccnc32)cc1
37: CCc1nc2ccccc2n1CCCCOc1ccc(C)cc1
38: COc1ccc(C(CNC(=O)c2cccc([N+](=O)[O-])c2)N2CCOCC2)cc1 (stereo not given)
39: CCc1c(C)nc2nncn2c1NCc1ccccc1
40: CCc1ccccc1NC(=O)c1nn(-c2ccc(C)cc2)c(=O)c2c1c1ccccc1n2C

assay / entry	33	34	35	36	37	38	39	40
Polio RdRp inh	109	108	111	107	105	107	106	83
Polio RdRp inh intensity	111	111	109	105	98	114	109	86

Looked up above.
Value of `CCc1ccccc1NC(=O)c1nn(-c2ccc(C)cc2)c(=O)c2c1c1ccccc1n2C` in Polio RdRp inh intensity: 86
Value of `COC(=O)c1ccc(NC(=O)Cn2nc(C(=O)Nc3ccc(C)cc3)ccc2=O)cc1` in Polio RdRp inh intensity: 100
Value of `CCC(C)NC(=O)CCCN1C(=O)CCn2nc(-c3cccn3C)cc21` (stereo not given) in Polio RdRp inh: 110
Value of `Cc1cccc(NC(=O)Cn2nc3c4ccccc4n(Cc4ccccc4)cc-3c2=O)c1` in Polio RdRp inh: 110
Value of `Cc1ccc(-c2c(CN3CCN(c4cccc(C)c4)C(C)C3)csc2C)cc1` (stereo not given) in Polio RdRp inh: 98
Value of `Cc1ccc(-n2ncc3c(NCCc4ccccc4)ncnc32)cc1Cl` in Polio RdRp inh: 104

More records
41: CC(C)c1ccc(NC(=O)c2ccc3c(c2)CCCN3S(C)(=O)=O)cc1
42: COCCCNC(=O)c1sc2nc(C)c(C(=O)Nc3ccc(C)cc3C)c(-c3ccccc3Cl)c2c1N
43: CCOc1cc(CNC(=O)C2CCN(c3nc4ccccc4[nH]3)CC2)cc(OCC)c1OCC
44: COc1ccc(Nc2c3c(nc4nncn24)CCC3)cc1Cl
45: Cc1cc(C)cc(-n2ccn3cnnc3c2=O)c1
46: Cc1ccc(C)c(NC(=O)Cn2cc(S(=O)(=O)c3ccc(F)cc3)c(=O)c3cc(F)ccc32)c1
47: Cc1c(Cl)cccc1NC(=O)CCN1C(=O)c2ccccc2Sc2ncccc21
48: COc1ccc(CNC(=O)CN2C(=O)COc3ccc(S(=O)(=O)N4CCCCCC4)cc32)cc1

assay / entry	41	42	43	44	45	46	47	48
Polio RdRp inh	100	109	101	117	108	113	105	120
Polio RdRp inh intensity	103	111	107	113	112	114	108	118

49: Cc1nc(-c2cccc(NC(=O)Nc3ccccc3C(F)(F)F)c2)no1
50: COc1ccc(NC(=O)CCc2c(C)nn(-c3ccc(N4CCCC4)nn3)c2C)cc1Cl
51: Cc1ccc(Nc2c(-c3ccc(Cl)cc3)nc3sccn23)c(C)c1
52: CCOc1ccc(NC(=O)CSc2ncc(S(=O)(=O)c3ccc(F)c(C)c3)c(=O)[nH]2)cc1
53: Cc1ccc(C)c(NC(=O)CN(Cc2ccccc2)S(=O)(=O)c2ccc3nc(C)sc3c2)c1
54: COc1ccc(-c2noc(CC(=O)Nc3ccc(Br)cc3C)n2)cc1
55: Cc1ccc(C(=O)c2cn(Cc3ccccc3)c3cc4c(cc3c2=O)OCCO4)cc1
56: COc1cccc(CNC(=O)CN2C(=O)N(c3cccc(Cl)c3)S(=O)(=O)c3ccccc32)c1OC

assay / entry	49	50	51	52	53	54	55	56
Polio RdRp inh	112	107	109	98	104	108	108	108
Polio RdRp inh intensity	110	113	108	101	109	106	105	108

57: CC(=O)c1ccc(N2CCN(c3nc4ccccc4c4nc(-c5cccc(C)c5)nn34)CC2)cc1
58: Cc1cc(C)cc(-n2c(C)nc3cc(C(=O)NCc4ccc(F)cc4)ccc32)c1
59: O=C(CSc1ncc(S(=O)(=O)c2ccc(Br)cc2)c(=O)[nH]1)Nc1ccc2c(c1)OCCO2
60: O=C(CNC(=O)c1ccc(F)cc1)OCc1cc(=O)n2nc(C3CC3)sc2n1
61: COc1cccc(OCC(=O)NCCS(=O)(=O)N2CCN(c3ccccc3F)CC2)c1
62: COc1ccc(C(=O)NCCn2cc(SCc3ccc(C(F)(F)F)cc3)c3ccccc32)cc1OC
63: O=C(NCCCc1nc2ccccc2n1Cc1ccc(Cl)cc1Cl)c1ccco1
64: COc1ccccc1C(=O)N/C(=C\c1cn(S(=O)(=O)N(C)C)c2ccccc12)C(=O)NCCCn1ccnc1

assay / entry	57	58	59	60	61	62	63	64
Polio RdRp inh	103	104	101	103	104	101	109	111
Polio RdRp inh intensity	107	97	103	103	109	103	111	113

65: COc1ccc(NC(=O)Cn2c(=O)n(Cc3ccccc3OC)c(=O)c3cccnc32)cc1Cl
66: COc1cc(OC)c(OC)cc1CN1CCc2nc(Nc3ccc4c(c3)OCCO4)ncc2C1
67: Cc1ccc2occ(CC(=O)N(Cc3ccc(Cl)cc3)C3CCS(=O)(=O)C3)c2c1 (stereo not given)
68: Cc1ccccc1Nc1c(-c2cccc(Cl)c2)nc2ncccn12
69: O=C(c1cc(F)cc(F)c1)N1CCC(c2nc(-c3ccc(S(=O)(=O)N4CCCC4)cc3)no2)CC1
70: O=C(NCCCN1CCN(c2cccc(Cl)c2)CC1)c1ccc2nc(Cc3ccccc3)oc2c1
71: COc1ccccc1S(=O)(=O)Cc1ccc(C(=O)N2CCN(c3cc(Cl)ccc3C)CC2)o1
72: O=C(Cn1cc(SCc2cccc(F)c2)c2ccccc21)N1CCOCC1

assay / entry	65	66	67	68	69	70	71	72
Polio RdRp inh	105	97	111	110	105	107	103	112
Polio RdRp inh intensity	106	103	107	111	110	114	105	113

73: COc1cccc(N2C(=O)CSC23C(=O)N(Cc2ccccc2F)c2ccccc23)c1 (stereo not given)
74: Cc1ccc(NC(=O)NC(C)c2c(-n3cccc3)sc(C)c2C)cc1F (stereo not given)
75: Clc1ccc(CCNc2ncnc3c2c(-c2ccccc2)cn3-c2ccccc2)cc1
76: COc1ccc(OC)c(NCc2cccn2-c2nnc(N3CCCCC3)s2)c1
77: COc1cccc(NC(=O)Cn2c(=O)n(CCCCC(=O)NCc3ccccc3Cl)c(=O)c3ccccc32)c1
78: CCOC(=O)C1=C(CN(CC)Cc2ccccc2)NC(=O)NC1c1ccc(OC(C)C)cc1 (stereo not given)
79: CCCNC(=O)CSc1c(CCC)cnc2c1c(=O)n(C)c(=O)n2C
80: CCC(=O)N1CCCc2cc(S(=O)(=O)N3CCC(C(=O)NC4CCC(C)CC4)CC3)ccc21 (stereo not given)

assay / entry	73	74	75	76	77	78	79	80
Polio RdRp inh	104	110	110	108	110	106	113	112
Polio RdRp inh intensity	101	113	115	110	111	110	112	111

81: COc1ccc(-c2nc(CS(=O)CC(=O)NCc3ccccc3OC)c(C)o2)cc1 (stereo not given)
82: CCC(=O)Nc1ccc(S(=O)(=O)NCc2ccc3c(c2)CCN3C(=O)c2ccc(C)cc2)cc1
83: CC(C)CCNS(=O)(=O)c1ccc(N2CCCCS2(=O)=O)cc1
84: CC(C)c1ccc(S(=O)(=O)c2nnn3c2nc(N2CCCCC2)c2sccc23)cc1
85: CC(C)CC(=O)Nc1cc(-c2ccccc2F)nn1-c1ccccc1
86: Cc1ccc(Cn2nc(C)c(NC(=O)c3cc(-c4ccc(F)cc4)on3)c2C)cc1
87: NS(=O)(=O)c1ccc(CCNC(=O)Cn2c(=O)c3cccn3c3ccc(F)cc32)cc1
88: Cc1ccc(-n2ncc3c(NCCCn4ccnc4)ncnc32)cc1C

assay / entry	81	82	83	84	85	86	87	88
Polio RdRp inh	97	106	97	104	106	104	108	108
Polio RdRp inh intensity	81	104	102	107	112	110	117	107

Single records, from the list above. Order of values: Polio RdRp inh | Polio RdRp inh intensity
CCC(=O)Nc1ccc(S(=O)(=O)NCc2ccc3c(c2)CCN3C(=O)c2ccc(C)cc2)cc1 in the list: 106 | 104
NS(=O)(=O)c1ccc(CCNC(=O)Cn2c(=O)c3cccn3c3ccc(F)cc32)cc1 in the list: 108 | 117
CC(C)CC(=O)Nc1cc(-c2ccccc2F)nn1-c1ccccc1 in the list: 106 | 112
COc1ccc(-c2nc(CS(=O)CC(=O)NCc3ccccc3OC)c(C)o2)cc1 (stereo not given) in the list: 97 | 81

(list continues)
89: C=Cc1ccc(Cn2c(=O)n(-c3ccccc3C)c(=O)c3c4c(sc32)CN(C(C)=O)CC4)cc1
90: COc1ccc2c(CNCc3cccs3)c(C(=O)O)n(Cc3ccc(C)cc3)c2c1
91: Cc1ccc(CNC(=O)CCC(=O)N2CCSc3ccccc32)cc1
92: CCc1ccccc1N(C)C(=O)c1nn(C)c2c1CSc1ccccc1-2

assay / entry	89	90	91	92
Polio RdRp inh	103	103	103	115
Polio RdRp inh intensity	107	104	100	116
